# UCH37 DUB inh: human UCH37 deubiquitinating enzyme inhibition. Q9Y5K5. purified proteasome/UCH37, Ub-AMC cleavage fluorescence. inhibition, % (concentration not given with the values). hit rate 0.33% among 330,000;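 active = mean of two replicates above 20%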;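 note: 0% = compound-free wells with enzyme and 100% = wells lacking proteasome; stock transfer was 100 nL into about 20 µL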
#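 system = Proteasome-associated human UCH37 deubiquitinase | amount = 0.15 nM proteasome as dispensed | medium = pH 7.4 Tris-HCl (50 mM) with ovalbumin, ATP-MgCl2, DTT | incubation = 30 min preincubation with enzyme, 25 min cleavage at room temperature | detection = AMC fluorescence 355/460 nm | read-out basis = percent inhibition | controls = no-proteasome and no-compound wells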
# ALR inh: human ALR oxidase inhibition via reduced H2O2; P55789; purified ALR, DTT oxidation, H2O2 HRP-luminol luminescence; inhibition, % (concentration not given with the values); hit rate 3.8% among 290,000; AID 485317;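 active = mean and each replicate at 75% or more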;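 note: stock transfer was 7.5 nL into about 7.5 µL; 0% = neutral wells and 100% = wells with inactivated enzyme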
# Target sequence (P55789 whole entry, looked up): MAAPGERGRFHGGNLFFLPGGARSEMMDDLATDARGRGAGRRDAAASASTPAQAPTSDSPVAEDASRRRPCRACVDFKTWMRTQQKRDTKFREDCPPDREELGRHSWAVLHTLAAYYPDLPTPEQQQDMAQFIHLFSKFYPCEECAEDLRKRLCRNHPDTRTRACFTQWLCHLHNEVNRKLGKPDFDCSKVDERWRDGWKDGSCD
# Ecoli rRNA inh: selective bacterial rRNA inhibition in E. coli; E. coli WT GFP vs humanized-ribosome RFP mutants, fluorescence, 24 h; hits give low values; DMSO median 0, no signal -100; hit rate 1.6% among 350,000; GFP signal change (wild-type ribosome), % (no concentration beside the values);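 active = significant combined selectivity score with lowered wild-type GFP, culture density cut under 30%, mutant RFP and density less affected; inactive = any of these conditions unmet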; note: one replicate is shown; some compounds called inactive have numbers as strong as hits
# FGF22 binding: shifts melting point of recombinant human FGF22 | calls only at 9.99 µM | hit rate 1.5% among 340,000 | Q9HCT0 | recombinant FGF22 thermal shift, SYPRO orange fluorescence; percent of sucrose octasulfate shift, DMSO zero | AID 651658;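 active = melting point raised past a set limit in the mean and every replicate; three in four hits are not shown here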
# Target sequence (Q9HCT0 whole entry, looked up): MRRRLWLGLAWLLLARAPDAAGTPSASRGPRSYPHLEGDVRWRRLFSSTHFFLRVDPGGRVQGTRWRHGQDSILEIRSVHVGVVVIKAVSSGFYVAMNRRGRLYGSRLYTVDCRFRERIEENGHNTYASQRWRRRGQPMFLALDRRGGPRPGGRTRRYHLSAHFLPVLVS
# HNF4A DNA FP: change in binding of human HNF4 alpha to DNA; HNF4a-FITC DNA binding, fluorescence polarization, 1 h; activity change, % at 10 µM; hit rate 0.3% among 360,000; AID 1224865; in the data active = activity change above about 30%, passing the limit was not always enough;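 note: controls were the assay level and a saturating level of protein; the project sought stronger binding though the title names inhibitors; some compounds called inactive have numbers as strong as hits; positive values seem to mean higher polarization but the record does not say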
# Target sequence (P41235 whole entry, looked up): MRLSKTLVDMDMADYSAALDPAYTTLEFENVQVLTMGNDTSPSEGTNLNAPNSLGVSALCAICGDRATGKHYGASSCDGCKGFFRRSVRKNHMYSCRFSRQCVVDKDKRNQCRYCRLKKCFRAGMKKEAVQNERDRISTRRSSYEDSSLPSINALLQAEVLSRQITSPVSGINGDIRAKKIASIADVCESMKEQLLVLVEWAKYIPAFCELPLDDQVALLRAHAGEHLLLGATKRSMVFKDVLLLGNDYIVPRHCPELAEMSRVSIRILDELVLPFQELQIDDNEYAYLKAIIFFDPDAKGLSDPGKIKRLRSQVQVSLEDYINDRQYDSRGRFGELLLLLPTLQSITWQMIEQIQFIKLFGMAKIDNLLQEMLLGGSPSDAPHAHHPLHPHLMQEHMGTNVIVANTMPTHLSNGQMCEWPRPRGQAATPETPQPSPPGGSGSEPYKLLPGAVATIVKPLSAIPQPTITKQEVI
# E coli growth: E. coli growth inhibition; OD600 absorbance (no concentration beside the values); hit rate 0.21% among 330,000; Escherichia coli growth, OD600, 23 h; hits give low values; AID 1053175;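 active = OD600 absorbance below the run mean of sample wells minus 3.6 SD, in any replicate, cut at about 0.56 in these data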;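 note: stock transfer was 300 nL into about 60 µL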
# Beta2AR agonist: activates human beta-2 adrenergic receptor causing internalization | response, % (concentration not given with the values) | Am2.2-beta2AR cells, FAP receptor internalization, flow cytometry; reference of the scale not given here | hit rate 0.43% among 340,000 | AID 504454 | P07550;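 active = response above a set limit, near 3 SD of response in nonfluorescent compounds, cut at about 42% in these data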;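 note: stock transfer was 100 nL into about 11 µL; a reference agonist was the positive control; negative values mostly stem from fluorescent compounds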
# Ecoli rRNA inh OD600: second read-out of Ecoli rRNA inh, no call of its own (marks repeat the call); OD600 change, %; measured here: OD600 growth;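 optical density of the mix in the first replicate; 0 = DMSO median and -100 = no signal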
# Ecoli rRNA inh RFP: further read-out of Ecoli rRNA inh, marked with its call; RFP signal change, %; measured here: RFP humanized mutant strains;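 first replicate; 0 = DMSO median and -100 = no signal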
# Starred values were filed as active, the others as inactive; i = inactive; x = no result given. The list is partial. The share of hits here may be higher or lower than overall.
SMILES,UCH37 DUB inh,ALR inh,Ecoli rRNA inh,Ecoli rRNA inh OD600,Ecoli rRNA inh RFP,FGF22 binding,HNF4A DNA FP,E coli growth,Beta2AR agonist
O=C(Oc1ccc(C(=S)N2CCOCC2)cc1Cl)c1ccccc1F,2.3,11,-11,1,-0.6,i,-1.6,0.68,0
CCOC(=O)C(C#N)(Cc1cc(OC)cc(OC)c1)Cc1cc(OC)cc(OC)c1,-0.1,5,x,x,x,x,1.1,0.63,14
CC(=O)N/C(=C\c1ccccc1)C(=O)OCC(=O)Nc1ccc(C)c(S(=O)(=O)N(C)C)c1,1.7,1,-9,-5,2.1,i,-0.9,0.68,6
CCOc1ccc(C2/C(=C(/O)c3ccc(OC)cc3)C(=O)C(=O)N2c2cc(C)on2)cc1OC (stereo unspecified),10,0,x,x,x,x,-1.3,0.74,3
O=C(NCC(=O)N(c1cccc(F)c1)C(C(=O)NC1CCCC1)c1ccncc1)c1cccs1 (stereo unspecified),0.8,-5,-1,11,-1.5,i,-1.1,0.69,-5
Cc1ccc(NC(=O)C2CCCN(S(=O)(=O)c3cccnc3)C2)cc1C (stereo unspecified),2.4,-5,-1,-7,-4.8,i,7.3,0.66,4
N#CC1C(=O)NC(=O)C(C#N)C12CCCC(C(F)(F)F)C2 (stereo unspecified),x,x,7,8,-0.7,i,-2.4,x,-11
CCC(C)(C)NC(=O)C(c1ccc(OC)cc1)N(C(=O)CCC(=O)Nc1cc(C)on1)c1ccc(F)cc1 (stereo unspecified),0.5,-4,-1,0,1.2,i,2.0,0.67,4
CC12CCC(=O)N1C(C(=O)Nc1ccc(S(=O)(=O)N3CCCCC3)cc1)CS2 (stereo unspecified),-3.4,-13,3,2,0.6,i,-5.5,0.72,-3
Cc1ccc(S(=O)(=O)N2CCN(C(=O)COc3ccc(Br)cc3)CC2)cc1,4.8,x,6,-1,-1.8,i,-3.2,0.66,1
COc1ccc(Br)c(OC)c1C(=O)NC(=O)Nc1c(F)cccc1F,2.6,5,-19,-21,0.8,i,2.6,0.65,-1
CN(CC(=O)Nc1ccccc1Br)C(=O)c1cccn1C,2.8,2,5,10,0.7,i,5.2,0.68,6
COc1ccc(C2(CCN=Cc3ccc(N(C)C)cc3)CCOC(C)(C)C2)cc1 (stereo unspecified),9.0,0,10,5,-9.7,i,1.1,0.7,14
COc1ccccc1C(=O)NCCC(=O)NCC1CCCCC1,1.0,-12,0,8,2.6,i,-4.2,0.69,-14
Cc1ccc(/C=C/c2onc(C)c2S(=O)(=O)N2CCC(C(=O)NC(C)(C)C)CC2)cc1,-0.4,-4,0,12,-3.3,i,1.5,0.71,6
COc1cc([N+](=O)[O-])c2nccnc2c1,3.3,0,14,9,0.0,i,-4.5,0.7,-3
CCNC(=S)N(Cc1c(C)noc1C)c1ccccc1,2.4,-2,x,x,x,x,0.0,0.71,2
Cc1n(CC(O)COCc2ccccc2)c2ccccc2[n+]1C (stereo unspecified),1.5,-17,x,x,x,x,2.8,0.62,8
O=C(/C=C(/c1ccc(Cl)cc1)n1cncn1)c1ccccc1,3.1,27,x,x,x,x,2.2,0.68,21
Cc1nnc(SCC(=O)Nc2cc(C(C)(C)C)nn2-c2ccccc2)s1,3.4,2,x,x,x,x,-1.1,0.63,1

# 5 entries picked at random from those above, as already listed:
SMILES,UCH37 DUB inh,ALR inh,Ecoli rRNA inh,Ecoli rRNA inh OD600,Ecoli rRNA inh RFP,FGF22 binding,HNF4A DNA FP,E coli growth,Beta2AR agonist
Cc1n(CC(O)COCc2ccccc2)c2ccccc2[n+]1C (stereo unspecified),1.5,-17,x,x,x,x,2.8,0.62,8
Cc1nnc(SCC(=O)Nc2cc(C(C)(C)C)nn2-c2ccccc2)s1,3.4,2,x,x,x,x,-1.1,0.63,1
CN(CC(=O)Nc1ccccc1Br)C(=O)c1cccn1C,2.8,2,5,10,0.7,i,5.2,0.68,6
Cc1ccc(/C=C/c2onc(C)c2S(=O)(=O)N2CCC(C(=O)NC(C)(C)C)CC2)cc1,-0.4,-4,0,12,-3.3,i,1.5,0.71,6
COc1ccc(Br)c(OC)c1C(=O)NC(=O)Nc1c(F)cccc1F,2.6,5,-19,-21,0.8,i,2.6,0.65,-1

# The list continues:
SMILES,UCH37 DUB inh,ALR inh,Ecoli rRNA inh,Ecoli rRNA inh OD600,Ecoli rRNA inh RFP,FGF22 binding,HNF4A DNA FP,E coli growth,Beta2AR agonist
Cc1ccc(C)c(N2CCN(C(=O)c3ccc4nc(N5CCOCC5)sc4c3)CC2)c1,-0.5,4,-19,-51,12,i,-3.2,0.64,-3
CCOc1ccc(-c2csc3ncn(-c4ccc(OC)cc4)c(=O)c23)cc1,-0.6,-17,-4,-4,1.2,i,4.1,0.7,1
Cc1cccc(OCc2nc(-c3cccnc3)no2)c1,-0.2,-6,7,3,3.0,i,1.8,0.64,-4
CCCCOCCCNC(=O)Cc1cccs1,0.8,-3,x,x,x,x,-1.0,0.72,-1
COc1cc2cc(C(c3nnnn3C3CCCC3)N3CCc4ccccc43)c(=O)[nH]c2cc1OC (stereo unspecified),-121,-33,x,x,x,i,4.6,0.65,-1
C/C(=N\O)C(C)(C)Nc1cccc(F)c1,x,-3,2,-9,-0.5,i,-1.4,x,-3
O=C(O)CCN1CC2([N+](=O)[O-])C=CC(=O)C([N+](=O)[O-])(C1)C2CC(=O)c1ccccc1 (stereo unspecified),13,-22,10,1,-3.2,i,-3.0,0.68,0
CCc1nc2c(OCCOc3ccc(F)cc3)cccn2c1N(C)C(=O)c1ccc(C)cc1,x,x,-16,-24,-2.2,i,3.9,x,x
COc1cc([N+](=O)[O-])ccc1NC(=O)CSc1ccccn1,3.7,-17,x,x,x,x,-2.0,0.71,13
Cc1ccc(C)c(NC(=O)C(CC(=O)O)C2CCCO2)c1 (stereo unspecified),0.8,-9,4,-2,2.9,i,-1.4,0.71,-1
O=C(NS(=O)(=O)Oc1cccc(Cl)c1Cl)OC[C@@H]1CCCN2CCCCC12 (stereo partly specified),0.1,0,10,9,2.1,i,2.9,0.66,-7
Cc1ccsc1C(=CCCN1CCC[C@@H](C(=O)O)C1)c1sccc1C,-0.1,0,-19,-31,-2.2,i,1.0,x,-6
Cc1ccccc1-c1nc2sc3c(c2c(=O)o1)CCC3,-1.8,2,x,x,x,x,0.5,0.7,16
NC(=O)c1ccsc1NC(=O)c1ccc(S(=O)(=O)N2CCCC2)cc1,7.4,42,-5,-3,-1.4,i,-2.2,0.72,14
CC(C)(C)c1ccccc1N=Cc1ccc2ccccc2n1,-1.5,-16,x,x,x,x,3.8,0.72,18
O=C(COC(=O)/C=C/c1cccc(Br)c1)NCc1cccs1,-1.3,1,-1,12,-0.1,i,2.1,0.62,2
CN(C)CCN1C(=O)c2ccccc2C1=O,-0.9,-1,3,2,6.6,i,4.3,0.7,0
Fc1ccc(N2CCN(Cc3cnc(Cl)s3)CC2)cc1,0.4,47,2,4,-2.1,i,0.9,0.67,1
COc1ccc(C2OCC(C)([N+](=O)[O-])CO2)cc1 (stereo unspecified),-0.9,x,8,12,0.7,i,4.0,0.67,-4
CC(=O)Nc1cccc(-c2ccnc3c2CC(C(=O)NCC2CCOCC2)O3)c1 (stereo unspecified),x,x,3,7,-2.6,i,2.9,x,x

# Copied from the list:
# CC(=O)Nc1cccc(-c2ccnc3c2CC(C(=O)NCC2CCOCC2)O3)c1 (stereo unspecified) @ Ecoli rRNA inh RFP = -2.6
# CN(C)CCN1C(=O)c2ccccc2C1=O @ ALR inh = -1
# O=C(COC(=O)/C=C/c1cccc(Br)c1)NCc1cccs1 @ UCH37 DUB inh = -1.3
# NC(=O)c1ccsc1NC(=O)c1ccc(S(=O)(=O)N2CCCC2)cc1 @ Ecoli rRNA inh OD600 = -3

# Continued.
SMILES,UCH37 DUB inh,ALR inh,Ecoli rRNA inh,Ecoli rRNA inh OD600,Ecoli rRNA inh RFP,FGF22 binding,HNF4A DNA FP,E coli growth,Beta2AR agonist
Cc1ccc2c(CN3CCOCC3)cc(=O)oc2c1,1.8,-16,-6,-5,-1.0,i,x,0.6,x
CCOC(=O)c1c(C)[nH]c(C)c1C(=O)COC(=O)C1CC(=O)N(CCc2ccccc2)C1 (stereo unspecified),-3.0,22,-6,-5,7.8,i,0.5,0.66,0
CC1CCCC(C)N1C(=O)COC(=O)c1c[nH]c2ccccc12 (stereo unspecified),4.3,x,-4,0,0.2,i,0.7,0.66,-7
C=CCCC(=O)N1CCC(n2nccc2NC(=O)c2ccccc2C)CC1,6.0,-11,7,9,-0.1,i,1.9,0.7,-5
Cc1ccnc(NC(=O)COc2ccccc2[N+](=O)[O-])c1,x,x,9,11,0.0,i,0.0,x,-1
O=S(=O)(NC(=NCc1ccccc1)c1ccccc1)c1ccc(Br)cc1,-0.7,0,-48,-74,-8.1,i,-0.4,0.71,-4
CCOc1ccc(N2CC(C(=O)NC3CCCC3)CC2=O)cc1 (stereo unspecified),4.7,-9,4,12,-1.4,i,4.4,0.69,-2
O=C(NCc1nnc2n1CCCCC2)c1ccc(Cl)cc1Cl,1.2,2,x,x,x,x,-0.8,0.74,3
Cc1cc(Cl)ccc1Oc1cccc(C(=O)/C(C#N)=C/N(C)C)c1,0.2,6,x,x,x,x,-2.1,0.72,-6
CCCCCNC(=O)C1c2ccccc2Oc2ccccc21,3.0,-7,11,-8,2.9,i,2.1,0.67,-2
COc1ccc(S(=O)(=O)Nc2ccccc2C(=O)NCc2cccnc2)cc1C,-29,x,-3,-9,-1.1,i,1.2,0.67,-4
Cc1nc2ccccn2c(=O)c1NC(=O)c1cccs1,6.5,-2,5,12,-1.1,i,-2.2,0.67,1
CC1(C)CC(=O)C2=C(C1)N(Cc1cccnc1)C(=O)C2(NC(=O)c1cccnc1)C(F)(F)F (stereo unspecified),3.0,-7,x,x,x,x,0.5,0.71,9
CCN1C[C@@H]2[C@@H]3C(=O)N(Cc4ccccc4)C(=O)[C@@H]3[C@](C)(C1=O)N2C(=O)c1ccc(Cl)cc1,3.7,x,14,13,7.0,i,-1.2,x,0
CCN1CCn2c3c(c4cc(Br)ccc42)CCCC31 (stereo unspecified),2.3,5,x,x,x,x,1.5,0.74,14
COc1ccc(/C=N/NC(=O)CC(=O)NC2CCCCC2)cc1,x,3,9,7,2.1,i,0.5,x,-1
Cc1cc(C)cc(NCc2cc3c(cc2[N+](=O)[O-])OCO3)c1,2.7,10,x,x,x,x,-1.3,0.69,4
Cc1ccc(Nc2nc(C)c(CCC(C)C)c(=O)[nH]2)cc1,1.9,-19,x,x,x,x,-1.9,0.71,4
Cc1ccc(C2CC(c3ccccc3)=NN2C(=O)CSc2nnc(-c3ccncc3)n2C)o1 (stereo unspecified),1.4,-1,0,6,4.0,i,-1.1,0.64,-3
Cc1cc(C(=O)N/N=C/c2cccs2)no1,x,-4,9,11,6.4,i,0.8,x,-5
COc1ccc(C2CC(c3ccccc3)=NN2C(=O)COC(=O)c2cc(S(=O)(=O)N3CCOCC3)ccc2F)cc1 (stereo unspecified),-6.2,-14,7,6,14,i,-1.6,0.72,1
Cc1cccn2c(=O)c(/C=C(\C#N)C(=O)NCc3ccccc3)c(N3CCC(C(N)=O)CC3)nc12,2.8,-23,22,6,2.8,i,1.7,0.69,-4
CS(=O)(=O)c1ccc2nc(NC3(C(F)(F)F)N=C4SCCN4C3=O)sc2c1 (stereo unspecified),2.1,-2,x,x,x,x,3.6,0.68,0

# Assay outcomes: PubChem, several laboratories
